Assay outcomes deposited in PubChem by National Center for Advancing Translational Sciences (NCATS).
MARV entry inh = qHTS for Inhibitors of binding or entry into cells for Marburg Virus; Marburg virus pseudotype entry/binding inhibition, cell-based; control for the full effect not named in the record; many of its hits are not listed in these tables; Potency, µM (series often up to 49.2 µM), inactives show at the top dose activity change, negative = inhibition, actives largely listed as inhibitors; actives 6.5% (n = 18,000); active means well fitted inhibition curve with a large enough effect; inconclusive means small, poorly fitted or top-dose-only effect; inactive means no such curve, though single readings can be large or run the other way; tested in HEK293 cells; further: luciferase read-out
LASV entry inh = qHTS for Inhibitors of binding or entry into cells for Lassa Virus. Lassa virus pseudotyped entry inhibition, cell-based qHTS; control for the full effect not named in the record; many of its hits are not listed in these tables. Potency, µM (top dose mostly 49.2 µM), inactives show at the top dose activity change, negative = inhibition, most hits filed as inhibitors. actives 4.1% (n = 18,000); active = well fitted inhibition curve with a large enough effect; inconclusive = small, poorly fitted or top-dose-only effect; inactive = no such curve, though single readings can be large or run the other way; tested in HEK293 cells; further: luciferase read-out
Numbers without * were called inactive; ? = inconclusive; / = not tested or not shown; & = joins results of further samples; [ ] = another dose, or the depositor's remark. On the % scale 0 is the no-effect control and ±100 the full control effect; potency means the concentration at half of the fitted maximal effect. The list is partial (hit frequency here may not be typical).

SMILES	MARV entry inh	LASV entry inh
C(#C[C@@H]1C=C[C@H]2OC(c3ccccc3)OC[C@H]2O1)c1ccccc1 (stereo not given in full)	15%[8.59 µM]	2%[8.59 µM]
C[C@@H]1c2ccccc2CN1CC1=NCCN1	7%	-3%
Cc1cnc(CNc2ncncc2-c2ccccc2C(F)(F)F)cn1	6%	-1%
C=C1CCC2[C@](C)(CO)[C@H](O)CC[C@@]2(C)[C@@H]1C/C=C1/C(=O)OC[C@H]1O (stereo not given in full)	?	-9%
Cc1ccc(C)c(-c2ccc(C(=O)O)o2)c1	18%[107 µM]	13%[107 µM]
CN(C)Cc1ccccc1-c1cncnc1Nc1ccc(F)cc1	-16%	4%
CCCCCCCC/C=C\CCCCCCCC(=O)NCCO	9%&-13%&-22%	-12%&-11%&-12%
CC(C)(C)NC[C@H](O)c1ccc(O)cc1Cl	1%	-7%
Cc1ccc(/C(=C\CN2CCCC2)c2cccc(/C=C/C(=O)O)n2)cc1	1%	-12%
COC(=O)C1=C(C)N(Cc2ccccc2)C(=S)NC1c1cccc(C(F)(F)F)c1 (stereo not given)	-35%[8.59 µM]	1%[8.59 µM]
O=[N+]([O-])c1cccc2c(Br)[nH]nc12	11%&14%&9%&2%	-2%&5%&19%&7%
COP(=S)(OC)Oc1ccc(Sc2ccc(OP(=S)(OC)OC)cc2)cc1	5%	?
CCCCCC(=O)/C=C/C=C\CCCCCCCC(=O)O	10%&-3%	-3%&10%
Clc1ccc(Sc2cc(Cl)c(Cl)cc2Cl)cc1	-12%	3%
NC[C@H]1O[C@H](O[C@H]2[C@H](O)[C@@H](O[C@H]3O[C@H](CO)[C@@H](O)[C@H](N)[C@H]3O)[C@H](N)C[C@@H]2N)[C@H](N)C[C@@H]1O	17%[17.8 µM]	-6%[17.8 µM]
COCc1c(C(=O)N2CCCCCC2)cnn1-c1nccc(-c2cccs2)n1	11%	-15%
Cc1nc(N)sc1CCN	-28%&3%	2%&5%
Cc1ccsc1C1Cc2c(C(=O)NCc3cccnc3)c(=O)cc(C)n2-c2ccccc2S1 (stereo not given)	-7%	-7%
COC(=O)C1=C(C(=O)OC)[C@@H]2N(C)c3ccccc3[C@@]23C[C@@H](C(=O)OC)N(C(=O)Nc2cccc(C#N)c2)C3=N1	27%[8.59 µM]	0%[8.59 µM]
COc1ccccc1C(=O)N[C@@H]1c2ccccc2C2(CCN(Cc3c(O)cccc3OC)CC2)[C@H]1O	?	?
CCCC(=O)OC(C(Cl)(Cl)Cl)P(=O)(OC)OC (stereo not given)	25%	-2%
CC(=O)O[C@H]1CC[C@H]2[C@@H]3CCC4=CC(=O)CCC4=C3C=C[C@]12C	6%	-1%
O=C(NC1CCC(n2cc(C(=O)NC3CC3)nn2)CC1)C(=O)c1ccccc1 (stereo not given)	-2%	5%
COC(=O)C(C(=O)OC)[C@@H]1O[C@@]23COC=C[C@]2(C)[C@H]3c2ccccc21	21%	0%
CC1CCC(C(C)[C@H]2CCC3C4CC(=O)C5C[C@@H](O)CC[C@]5(C)C4CC[C@@]32C)=NC1 (stereo not given in full)	-16%	3%

Next structures
SMILES	MARV entry inh	LASV entry inh
C[C@H](NC(=O)[C@@H](N)Cc1ccc(O)cc1)C(=O)NCC(=O)N(C)[C@@H](Cc1ccccc1)C(=O)NCCO	3%	-12%
C[C@H](CCC(=O)O)[C@H]1CC[C@H]2[C@H]3C(C[C@H](O)[C@]12C)[C@@]1(C)CC[C@@H](O)C[C@H]1C[C@H]3O (stereo not given in full)	-3%&-3%	-5%&11%
O=C(c1ccc(C(F)(F)F)cc1)N1CCC(=O)N([C@H](COCc2ccc(C(F)(F)F)cc2)Cc2ccccc2)CC1	?	?
NC(CP(=O)(O)O)C(=O)O (stereo not given)	11%	-3%
CN1CC[C@@]23CCCC[C@@H]2[C@@H]1Cc1ccc(O)cc13	?	0%
CCN1C(=S)NC(c2cccc(C(F)(F)F)c2)C(C(=O)OC)=C1C (stereo not given)	96%[activator][8.59 µM]	-1%[8.59 µM]
CCn1c(-c2cccnc2)nc2cc(NC(=O)COC)cc(C(=O)N3CCOc4ccccc4C3)c21	-6%	-5%
COc1cc2c(cc1Nc1nc(Nc3ccsc3C(N)=O)c3cc[nH]c3n1)N(C(=O)CN(C)C)CCC2	1.6µM*	/
CCC[C@@H]1C[C@@H](C(=O)N[C@@H]([C@H]2O[C@H](SC)[C@H](OP(=O)(O)O)[C@@H](O)[C@H]2O)[C@H](C)Cl)N(C)C1	29%&0%	2%&-13%
CCn1c(-c2nonc2N)nc2c(C#CC(C)(C)O)nc(CN3CCCC3)cc21	?	/
CCOC(=O)NN=C1C[C@@H](O)[C@@H](O)[C@@H]2[C@H]3C(=O)N([C@@H](C)c4ccccc4)C(=O)[C@@H]3CC[C@H]12	10%[8.59 µM]	0%[8.59 µM]
CN1C(=O)c2ccccc2C1=O	19%[107 µM]	-1%[107 µM]
C[C@H](Cc1nc2c(cnn2-c2ccccc2Cl)c(=O)[nH]1)C(F)(F)F	10%	-12%
Nc1ncnc2c1ncn2[C@@H]1O[C@H](COP(=O)(O)CP(=O)(O)O)[C@@H](O)[C@H]1O	5%	2%
CCN1C(=NCc2ccccc2)N[C@@H](c2ccccc2)[C@H](C(=O)OC)[C@H]1C	-16%[8.59 µM]	-13%[8.59 µM]
Cc1c(N)nc([C@H](CC(N)=O)NC[C@H](N)C(N)=O)nc1C(=O)N[C@H](C(=O)N[C@H](C)[C@@H](O)[C@H](C)C(=O)N[C@H](C(=O)NCCc1nc(-c2nc(C(=O)NCCCCN=C(N)N)cs2)cs1)[C@@H](C)O)[C@@H](O[C@@H]1O[C@@H](CO)[C@@H](O)[C@H](O)[C@@H]1O[C@H]1O[C@H](CO)[C@@H](O)[C@H](OC(N)=O)[C@@H]1O)c1cnc[nH]1	4µM*	3.2µM*
C[C@@H](NS(=O)(=O)c1ccc(Br)cc1F)[C@H](O)c1ccccc1	20%	12%
CC(=O)O[C@H]1C[C@H]2CC[C@@H]3[C@@H](CC[C@]4(C)[C@H](OC(C)=O)[C@H]([N+]5(C)CCCCC5)C[C@@H]34)[C@]2(C)C[C@H]1[N+]1(C)CCCCC1	4%[17.8 µM]	0%[17.8 µM]
O=C(NCCc1nnc2n1CCN(Cc1c(F)cccc1F)CC2)c1ccco1	25%	-10%
CCCCCCCCCCCCCCC(C(=O)OC)C(O)(CC(=O)OC)C(=O)OC (stereo not given)	11%	-9%
CC(C)(C)CC(C)(C)c1ccc(OCCO)cc1	-19%	?
Cc1cc(O)c2c(O)c3c(O)cccc3cc2c1	-20%	-21%
C=C1CCC2C(CC2(C)C)C(=C)CC/C1=N/O (stereo not given)	0%	-12%
COCCN(CCOC)Cc1cc(=O)oc2cc(C)c(Cl)cc12	14%	9%
O=c1n(CC2CO2)c(=O)n(CC2CO2)c(=O)n1CC1CO1 (stereo not given)	?	?

Compounds shown so far containing a furan ring, fused or not:
SMILES	MARV entry inh	LASV entry inh
Cc1ccc(C)c(-c2ccc(C(=O)O)o2)c1	18%[107 µM]	13%[107 µM]
O=C(NCCc1nnc2n1CCN(Cc1c(F)cccc1F)CC2)c1ccco1	25%	-10%

More entries.
SMILES	MARV entry inh	LASV entry inh
CC(C)(N)Cc1ccc(Cl)cc1	?	4%
Nc1cc(Cl)c(NC2=NCCN2)c(Cl)c1	25%	-2%
N[C@H](Cc1o[nH]c(=O)c1Cl)C(=O)O	-13%	6%
O=C(O)CN(CC(=O)O)c1ccccc1OCCOc1ccccc1N(CC(=O)O)CC(=O)O	7%	-10%
CC(C)(C)OC(=O)N1CCC(C(=O)Nc2cccc(C(=O)NCc3ccccc3)c2)CC1	-13%	-11%
COc1ccc(-c2nc(-c3ccccc3)c(NCc3ccccc3)o2)cc1	10%	-5%
O=C1Nc2ccccc2C2(CCN(CCc3ccc(C(F)(F)F)cc3)CC2)O1	11µM*	?
COc1cccc(-c2ccc(O)c(CNCc3cccc4ccccc34)c2)n1	8%	-15%
CC(=O)NCc1c(I)c(NC(C)=O)c(I)c(C(=O)O)c1I	5%	-3%
COc1ccc(CNc2ccnc(-c3ccccc3C(F)(F)F)n2)c(OC)c1	-11%	-1%
Clc1ccccc1-c1nc(N2CCNCC2)c2ccccc2n1	?	-12%
CC1=CC[C@@H](COc2ccccc2)O[C@@]2(C1)C(=O)N(Cc1ccc(F)cc1)c1cccc(Br)c12	-10%[8.59 µM]	19%[8.59 µM]
CCCCCCCCOC(=O)c1ccccc1C(=O)OCCCCCCCC	-8%	-15%
Cn1c2ccccc2c2cc(C(=O)N3CCOc4ccc(C(C)(O)CCn5cccn5)cc4C3)ccc21 (stereo not given)	3%	7%
COc1ccc(-n2c(CNC(=O)c3cccc(OC)c3OC)nnc2SC)cc1	-12%	-7%
O=c1oc2ccccc2c(O)c1C(c1ccccc1O)c1c(O)c2ccccc2oc1=O	-25%	-18%
COc1ccc2c(CN(Cc3ccccc3)Cc3ccccc3)cc(=O)oc2c1	-8%	17%
CNCC/C=C\c1cccnc1	-3%	-12%
COC(=O)[C@@H](N)CCCN=C(N)N[N+](=O)[O-]	18%&-15%&7%	11%&-8%&0%
NC(=O)Cc1cccc(C(=O)c2ccccc2)c1N	4%	2%
C[C@]12CC[C@H](OS(=O)(=O)O)CC1=CC[C@@H]1[C@@H]2CC[C@]2(C)C(=O)CC[C@@H]12	-8%	-7%
CCN1C(=O)[C@@H]2[C@H]3[C@H](O)[C@H](O)CC(=NOC[C@@H](O)COCc4ccco4)[C@@H]3CC[C@H]2C1=O	-22%&34%[8.59 µM]	1%&7%[8.59 µM]
COc1ccccc1CCNCc1cc2cccc(C)c2nc1-c1cccs1	-13%	-7%
COCCN1C(=O)NC(CCc2ccccc2)C(C(C)=O)=C1C (stereo not given)	5%[8.59 µM]	11%[8.59 µM]
OC[C@@H]1OC(O)[C@H](O)[C@H](O)[C@H]1O (stereo not given in full)	8%	11%

Pulled by structure from the list above, 6 records:
SMILES	MARV entry inh	LASV entry inh
C[C@]12CC[C@H](OS(=O)(=O)O)CC1=CC[C@@H]1[C@@H]2CC[C@]2(C)C(=O)CC[C@@H]12	-8%	-7%
CCCCCCCCOC(=O)c1ccccc1C(=O)OCCCCCCCC	-8%	-15%
N[C@H](Cc1o[nH]c(=O)c1Cl)C(=O)O	-13%	6%
COc1ccc(-c2nc(-c3ccccc3)c(NCc3ccccc3)o2)cc1	10%	-5%
COc1ccc2c(CN(Cc3ccccc3)Cc3ccccc3)cc(=O)oc2c1	-8%	17%
Cn1c2ccccc2c2cc(C(=O)N3CCOc4ccc(C(C)(O)CCn5cccn5)cc4C3)ccc21 (stereo not given)	3%	7%

Following part
SMILES	MARV entry inh	LASV entry inh
C/C=C1/CN2CC[C@]34C(=C(C=O)[C@@H]1C[C@H]23)Nc1c(O)cccc14	-18%	4%
COc1cc(O)c2c(c1)C(=O)c1cc(C)cc(O)c1C2=O	-5%	0%
Cc1ccc(C[N+](C)(C)C)o1	2%&9%&7%	6%&7%&1%
COCOCCn1cc(CN2CCS(=O)(=O)N(Cc3ccc(-c4ccncc4)cc3)C(C(C)C)C2=O)nn1 (stereo not given)	43%	39%[activator]
CCCN(C/C=C\I)[C@@H]1CCc2cccc(O)c2C1	25µM*	-6%
O=c1c(-c2ccc(O)cc2)coc2c(C3OC(CO)C(O)C(O)C3O)c(O)ccc12 (stereo not given)	6%	-2%
CCCCC[C@H](O)/C=C/[C@H]1C(=O)C=C[C@@H]1C/C=C\CCCC(=O)O	8%&-6%	1%&-2%
N[C@@H](Cn1ccc(=O)n(Cc2ccccc2C(=O)O)c1=O)C(=O)O	5%	3%
COc1ccc(-c2ccc(CN3C(C(C)C)C(=O)N(Cc4cn(CCC5OCCO5)nn4)CCS3(=O)=O)cc2)cn1 (stereo not given)	21%	-5%
C=CCc1ccc2c(c1)OCO2	13%	1%
CC(=O)Oc1ccccc1C(=O)O	12%&3%	-3%&7%
CCC1(c2ccccc2)C(=O)NC(=O)N(C)C1=O (stereo not given)	4%	-4%
O=c1cc(-c2cccc(F)c2)[nH]c2cc(Cl)ccc12	?	-23%
C[C@H]1CC[C@@H]2N(C1)C[C@H]1[C@@H]3C[C@H]4[C@@H](C/C(=N\O)[C@H]5C[C@@H](O)CC[C@@]54C)[C@@H]3CC[C@H]1[C@]2(C)O	-13%	3%
CC=COC(=O)N[C@@H](c1ccccc1)[C@]1(C(=O)OCC)CCCC1=O	2%[8.59 µM]	9%[8.59 µM]
N#CCCCS(=O)(=O)c1nnnn1-c1ccccc1	?	24%[8.59 µM]
Cc1cc(=O)c2c(O)c3c(O)cc(O)c4c5c(O)cc(O)c6c(O)c7c(=O)cc(C)c8c1c2c(c34)c(c65)c78	?	-12%&0%
